StopGo RLuc = lowers the Renilla signal of an FMDV 2A StopGo reporter; HEK cells with a luciferase reporter of 2A StopGo recoding; Potency, µM (top dose mostly 57.5 µM), for inactives: top-dose signal change, negative = less light; actives 0.32% (n = 120,000); AID 1745857; active means well fitted falling curve with a large enough effect; inconclusive means small, poorly fitted or top-dose-only effect; inactive means no such curve, though single readings can be large or run the other way; also: nearly all actives have a fitted effect of over 55% in size; overnight with compound
2A firefly = FMDV 2A StopGo reporter, firefly signal | HEK cells with a luciferase reporter of 2A StopGo recoding | Potency, µM (titrated, usually from 57.5 µM), without a hit: at the top dose signal change, negative = less light | actives 0.23% (n = 120,000) | AID 1745856; active = well fitted falling curve with a large enough effect; inconclusive = small, poorly fitted or top-dose-only effect; inactive = no such curve, though single readings can be large or run the other way; also: nearly all actives have a fitted effect of over 60% in size; overnight with compound
Numbers without * were called inactive; ? = inconclusive; & = joins results of further samples; [ ] = remark or other dose. % is scaled to controls: 0 for no effect and ±100 for the full control effect; potency is read from the fitted curve at half-maximal effect.

structure,StopGo RLuc,2A firefly
CCc1ccc2occ(CC(=O)Nc3sc4c(c3C(=O)NCCOC)CCCC4)c2c1,-12.2%,-16.9%
Cc1cccc(OCC(=O)Nc2ccc(C(=O)OCc3cc(=O)n4nc(C5CC5)sc4n3)cc2)c1,1.6%,-8.0%
COc1ccc(C(=O)Nc2ccc3oc(-c4ccncc4)nc3c2)cc1,11.7%,27.0%
CCCCNC(=O)c1cc(Sc2ccc(OCC)cc2)nc2ccccc12,-6.3%,-8.7%
COc1ccc(CNC(=O)CSc2nc3ccc(NC(=O)c4ccccc4F)cc3s2)cc1,25.5%,111.1%[activator]
CNC(=O)Cn1c(C)c(Br)c2ccccc21,-8.3%,3.1%
COc1ccc2c(C)cc(SCC(=O)NCc3ccc(F)cc3)nc2c1,5.2%,-5.8%
O=C(CSc1nnc2ccccn12)c1cccc(Cl)c1,86.3%[activator],61.6%[activator]
CN1CCN(CCC2(Cc3ccccc3)CCOC(C)(C)C2)CC1 (stereo not given),-4.6%,-13.1%
CCNc1c(NS(=O)(=O)c2ccc3c(c2)oc(=O)n3C)c(=O)oc2ccccc12,0.6%,13.7%
CCCn1c(CN2CCCCCC2)nc2cc(NC(=O)c3ccccc3)ccc21,54.2%[activator],28.6%
NC1CC1c1ccccc1C(F)(F)F (stereo not given),0.2%,21.0%
COc1ccccc1NC(=O)CCC1CCCC1,30.3%[activator],24.7%
Cc1nn(CC(=O)c2cc(C)n(C3CC3)c2C)c(=O)c(C#N)c1C,2.4%,6.8%
Cc1ccc(C)c(N2CCN(C(=O)C3CCN(S(=O)(=O)c4cn(C)cn4)CC3)CC2)c1,-12.5%,-12.5%
CC(=O)NC(CCS(C)(=O)=O)C(=O)Nc1ccc(C)c(F)c1 (stereo not given),20.8%,60.1%[activator]
COc1ccc(NC(=O)Nc2cn(CC(C)C)c(=O)c3ccccc23)c(OC)c1,-4.3%,-0.5%
CN(C)CC(=O)NC(=O)NCc1ccccc1,-7.7%,9.8%
CCc1cccc(-n2c(=O)c3cccnc3n2CC(=O)NCc2ccccc2Cl)c1,-2.1%,-18.2%
CCc1ccc(Nc2nc(CSc3ccc(Cl)cc3)nc3sc4c(c23)CCC4)cc1,0.0%[1.06 µM],22.5%
Cc1ccc(-n2ncc3c(Nc4ccc(Oc5ccccc5)cc4)ncnc32)cc1,-10.1%,13.3%
COc1ccc(N2Cc3nc(=O)n(CC(=O)NCc4ccccc4)n3C2=O)cc1,-9.1%,12.1%
CC(=O)c1ccc(OC(=O)c2ccccc2F)cc1OC(=O)c1ccccc1F,-4.5%,15.9%
COc1cc(/C=C2/NC(=O)NC2=O)cc(Br)c1OCc1ccc2ccccc2c1,6.8%,7.0%
O=C(CCc1cccs1)NCC1CCCO1 (stereo not given),12.9%,18.5%
O=C1CN(C(=O)Cc2ccccc2)C(c2ccc(F)cc2)c2cc(Br)ccc2N1 (stereo not given),16.4%,-30.9%
Cc1ccc(C(CNC(=O)c2cc(-c3cccs3)on2)N2CCOCC2)cc1 (stereo not given),11.4%,-8.4%
Cc1ccc(COc2c(Cl)cc(/C=C(/C#N)c3nc4ccc(C)cc4[nH]3)cc2Cl)cc1,12.9%,165.6%[activator]
O=C(CSc1nc2c(c(=O)n1CCc1ccccc1)SCC2)Nc1ccc(C(F)(F)F)cc1,17.6%,32.0%[activator]
CCc1nc(NC(=O)c2ccc(C#N)cc2)sc1C,11.8%,102.1%[activator]
COC(=O)C1=C(C)NC(C)=C(C(=O)OC)C1c1ccccc1[N+](=O)[O-],40.9%[activator],-8.5%[11.5 µM]
Cc1cc(C)c2c(N)c(C(=O)Nc3ccccc3C(F)(F)F)sc2n1,8.7%,130.6%[activator]
CC1CCC(NC(=O)c2ccc3c(c2)N(Cc2ccccc2F)C(=O)c2ccccc2S3=O)CC1 (stereo not given),-4.8%,57.5%[activator]
COC(=O)CC(NC(=O)Cc1cccc(OC)c1)c1cccs1 (stereo not given),-6.4%,-8.8%
COCc1ccc(CNC(=O)CC(C)(C)C)cc1,3.9%,0.0%
COC(=O)c1[nH]c2ccc(C)cc2c1NC(=O)CCN1CCCC(C)C1 (stereo not given),-8.9%,2.5%
Cc1ccc(S(=O)(=O)c2nnn3c2nc(NCc2ccc4c(c2)OCO4)c2sccc23)cc1,35.4%[activator],?
CCOC(=O)Nc1ccc(NS(=O)(=O)c2cc(F)ccc2F)cc1,95.7%[activator],-2.5%
COc1ccccc1N1CCN(c2ncnc3c2c(-c2ccccc2)cn3-c2cccc(Cl)c2)CC1,-10.0%,-20.1%
O=C(O)CNCc1ccccc1,7.2%,-6.7%
O=C(Oc1ccc2c(=O)c(Oc3ccc(F)cc3)coc2c1)c1ccccc1F,-0.4%,23.0%
O=C(COCc1nc2ccccc2c(=O)[nH]1)Nc1nc(-c2ccc3ccccc3c2)cs1,5.8%,179.3%[activator]
Cc1ccc(C(=O)c2c(C)c(CCC#N)n3ccccc23)cc1,5.6%,1.6%
O=C(c1cc(-c2ccco2)[nH]n1)N1CCN(c2ccccc2)CC1,32.0%[activator],22.4%
Cc1oc2cc(OCC(=O)N3CCN(C)CC3)ccc2c(=O)c1-c1ccccc1,-1.0%,26.3%
COc1ccc2c(c1)c1c(c(=O)n(-c3ccc(F)c(Cl)c3)c(=O)n1Cc1ccccc1C)n2C,-7.5%,-9.1%
CCCN1CCN(CC2=C(C(=O)OCC)C(c3ccc(OC(C)C)cc3)NC(=O)N2)CC1 (stereo not given),-10.7%,-15.2%
CCOc1cccc(CNC)c1OCc1ccc(Cl)cc1,0.3%,-5.1%
CCOc1ccc(-n2cc(-c3ccccc3)c3c(NC4CCCC4)ncnc32)cc1,-1.2%,-13.0%
CCOC(=O)c1sc(NC(=O)C2CC(=O)N(c3ccc(OC)cc3)C2)nc1C (stereo not given),-5.4%,-2.6%
N#CCCCOC(=O)c1c[nH]c2ccccc12,7.3%,17.0%
O=C(/C=C/c1ccccc1)c1ccc2oc3ccccc3c2c1,44.4%[activator],116.6%[activator]
CC(C)Cn1cc(NC(=O)N2CCN(c3ccccc3F)CC2)c2ccccc2c1=O,14.3%,14.5%
CC1=C(CC(=O)O)c2cc(F)ccc2/C1=C\c1ccc(S(C)=O)cc1 (stereo not given),-6.0%,-9.8%
NC(=S)N/N=C/c1c(Cl)cccc1Cl,7.2%,0.0%
Cc1c(/C=C(\C#N)c2ccc(Cl)cc2)c2ccccc2n1C,-1.9%,-4.2%
C/C(=N\O)c1oc2ccc3c(C)cc(=O)oc3c2c1-c1ccccc1,1.7%,4.9%
CC(C)C(=O)Nc1ccccc1I,22.2%,31.3%
Cc1nc2cc(NS(=O)(=O)c3ccc(C(C)(C)C)cc3)ccc2o1,56.2%[activator],?
COC(=O)c1c(NC(=O)CSc2ncnc3ccccc23)sc2c1CCCC2,-8.5%,12.3%

Remaining list, next part:
structure,StopGo RLuc,2A firefly
CCc1ccc(NC(=O)CSc2nc3c([nH]c4ccccc43)c(=O)n2C)cc1,-11.7%,-26.5%
Cc1ccc(C)c(N2CCN(C3(c4ccccc4)C(=O)c4ccccc4C3=O)CC2)c1,-13.5%,-5.4%
Cc1ccn2cc(-c3c(-c4ccccc4C)n(C)c(=O)n(C)c3=O)nc2c1,-19.7%,-4.6%
N#CCCN(C(=O)CN1CCCC1c1ccc(Cl)c(Cl)c1)c1ccccc1F (stereo not given),-7.3%,-6.9%
CCOC(=O)c1c(NC(=O)CSc2cn(CCNC(=O)c3ccccc3OC)c3ccccc23)sc2c1CCC2,1.9%,-6.1%
Cc1ccc(NC(=O)c2sc3nc(-c4ccncc4)ccc3c2N)cc1,5.5%,73.9%[activator]
CN(CC(=O)N(C)C)Cc1coc(-c2ccc(Cl)cc2)n1,-6.6%,17.9%
CCCCOC(=O)CC(CC(=O)OCCCC)(OC(C)=O)C(=O)OCCCC,-2.6%,14.4%[11.5 µM]
Cc1ccc(Cn2c(SCc3ccc(C(=O)NCCc4ccccc4)cc3)nc3ccncc32)cc1,-28.6%,49.2%[activator]
O=C(CSc1nc2c(c(-c3cccs3)n1)CCCC2)Nc1cc(Cl)cc(Cl)c1,0.9%,0.0%
O=C(NCc1ccccc1)c1ccccc1NS(=O)(=O)c1ccc2[nH]c(=O)[nH]c2c1,-2.2%,1.1%
O=C(/C=C/c1ccsc1)c1ccc(O)cc1,-8.4%,54.4%[activator]
Cc1ccc(Nc2cc(C(=O)NCc3cccs3)c3ccccc3n2)c(C)c1,15.5%,6.4%
N#Cc1cnn2c(C(F)(F)F)cc(-c3ccco3)nc12,3.9%,4.5%
CCCCn1nc(C(=O)N(C)Cc2cnn(-c3ccccc3)c2)c2ccccc2c1=O,?,?
CCOc1cc(C2c3c(oc4ccc(F)cc4c3=O)C(=O)N2Cc2ccc(C)cc2)ccc1O (stereo not given),21.8%,3.9%
Cc1ccc(-c2nnc(SCc3ccccc3C)o2)cc1,20.2%,315.5%[activator]
COc1cc(CCC(=O)NCc2ccc3c(c2)CCN3C(=O)c2ccc(F)cc2)cc(OC)c1OC,4.1%,-8.6%
C=CC[N+]1(CC#CCOC(c2ccccc2)c2ccccc2)CCCCC1,?,?
Cc1ccc(S(=O)(=O)NCC(c2ccco2)N2CCOCC2)cc1 (stereo not given),46.9%[activator],-11.2%
Cc1ccccc1OCC(=N)N,-9.1%,-7.9%
CCOC(=O)c1c(C)[nH]c(C)c1S(=O)(=O)N(C)CC(=O)Nc1ccc(C)c(N(C)C)c1,0.0%&58.2%,9.7%&-3.6%
COc1ccc(OC)c(CNC(=O)C2COc3ccccc3C2)c1 (stereo not given),15.3%,-1.5%
CCn1ccc2cc(S(=O)(=O)N3CCCN(C(=O)Nc4ccccc4F)CC3)ccc21,16.6%,27.2%
COc1ccc(N2Cc3cccc(C(=O)Nc4ccc(C)c(C)c4)c3C2=O)cc1,-7.3%,30.2%[activator]
COC(=O)c1c(C)oc2ccc(N(C(=O)c3ccncc3)S(=O)(=O)c3c(C)cc(C)cc3C)cc12,?,?
COc1ccc2cc(C(=O)Nc3ccccc3)c(C)nc2c1,-8.9%,25.5%
CC(C)(C)C(=O)NCCCC(=O)NCCc1cccs1,0.5%,-1.1%
COc1ccc(S(=O)(=O)Nc2cccc(-c3ccc(N4CCCCCC4)nn3)c2)cc1,193.1%[activator],110.5%[activator]
COc1cccc(Oc2coc3cc(OCc4ccccc4F)ccc3c2=O)c1,10.7%,52.7%[activator]
COc1cccc(NC(=O)CN(C)C(=O)c2cccc(S(=O)(=O)N3CCc4ccccc43)c2)c1,142.7%[activator],-1.7%
CCc1cccc(NC(=O)Cn2nc3c(cc2=O)CCCC3)c1,-1.3%,-2.2%
CC(C)(CNC(=S)Nc1ccc(SC(F)F)cc1)N1CCOCC1,83.7%[activator],43.0%[activator]
COc1cc(CNC(=O)c2ccccc2-c2nc(-c3ccc(Cl)cc3)no2)cc(OC)c1OC,62.5%[activator],52.1%[activator]
COC(=O)[C@H]1C[C@@]2(c3ccccc3)c3ccccc3N[C@H]2N1,3.8%,2.4%
COc1ccc(-c2cc(C(F)(F)F)nc(SCC(=O)N3CCCCC3)n2)cc1,-3.6%,-4.7%
COc1cccc(N2CCN(C(=O)c3cnn(C(C)(C)C)c3C3CCN(C(=O)OC(C)(C)C)CC3)CC2)c1,-6.9%,-7.2%
Cn1c(=O)c2c(ncn2CC(=O)Nc2ccc3c(c2)OC2(CCCCC2)O3)n(C)c1=O,-5.4%,26.0%
N#Cc1ccc(C(=O)Nc2ccc3c(c2)N(C2CCCC2)C(=O)c2ccccc2S3)cc1,32.3%[activator],-12.4%
CC(SC(C)c1ccccc1F)C(N)=O (stereo not given),2.6%,-2.7%

In another format: two of the compounds above.
> CCOC(=O)c1c(C)[nH]c(C)c1S(=O)(=O)N(C)CC(=O)Nc1ccc(C)c(N(C)C)c1
  StopGo RLuc: 0.0%&58.2%
  2A firefly: 9.7%&-3.6%
> COc1ccc(OC)c(CNC(=O)C2COc3ccccc3C2)c1 (stereo not given)
  StopGo RLuc: 15.3%
  2A firefly: -1.5%

Further records follow:
structure,StopGo RLuc,2A firefly
Nc1nc(N2CCOCC2)nc2c1C(C(=O)Nc1ccccc1)CC(=O)N2 (stereo not given),-9.3%,-2.8%
Cc1cccc(NC(NC(=O)c2cccc(Cl)c2)C(Cl)(Cl)Cl)c1 (stereo not given),?,?
CCNS(=O)(=O)c1cc(-c2nnc(Nc3cccc(C(F)(F)F)c3)c3ccccc23)ccc1C,145.4%[activator],-6.9%
CN(Cc1ccccc1)C(=O)c1cc(-c2ccc(F)cc2)n[nH]1,91.3%[activator],0.0%
Cc1ccc2nc(NC(=O)CCn3c(=O)oc4ccccc43)sc2c1,-5.6%,58.1%[activator]
Cc1cccc(OCCNC(=O)Cn2nc(C)c3ccccc3c2=O)c1,-15.0%,-5.5%
COc1cc(/C=C/C(=O)c2ccc(C(=O)O)s2)cc(OC)c1,?,-11.8%

Entries of single compounds from above:
`COc1ccc(S(=O)(=O)Nc2cccc(-c3ccc(N4CCCCCC4)nn3)c2)cc1` is listed as StopGo RLuc = 193.1%[activator]; 2A firefly = 110.5%[activator]
`CCc1ccc2occ(CC(=O)Nc3sc4c(c3C(=O)NCCOC)CCCC4)c2c1` is listed as StopGo RLuc = -12.2%; 2A firefly = -16.9%

Screening data deposited in PubChem by National Center for Advancing Translational Sciences (NCATS).
